Screens from PubChem.
Env fusion inh: inhibitors of HIV-1 Env-driven cell-cell fusion, primary screen, HeLa-JRFL effector, CEM21 target cells, luciferase; inhibition, % at 12.3 µM; 1.1% of 360,000 active;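 active means mean replicate inhibition score of at least 50 and every replicate individually at or above 50; inconclusive means only one of the two criteria met; inactive means mean below 50 and not all replicates reaching 50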;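 further: 0% = plate neutral controls and 100% = maraviroc near 300 nM; one replicate is shown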
Numbers without * were called inactive; ? = inconclusive; [ ] = remark or other dose. This is a subset (hit frequency here may not be typical).

SMILES | Env fusion inh
CCS(=O)(=O)Nc1ccc2c(c1)C(=O)N(C)C[C@H](OC)[C@H](C)CN(C(=O)c1ccc3c(c1)OCO3)[C@@H](C)CO2 | 6[16.7 µM]
COC(=O)[C@]12C[C@H](CC(=O)N3CCSCC3)C(=O)N(Cc3ccc4c(c3)OCO4)C1=C[C@H](C(C)(C)C)O[C@@H]2C | -24
CO[C@H]1CC[C@H]2CCN(C)C(=O)CC3(CCCCC3)CN(C)C(=O)c3cccc(C#N)c3OC[C@H]1O2 | 15[16.7 µM]
COc1ccccc1NC(=O)N1C[C@@H](O)COC[C@H]2O[C@H](CC(=O)NCc3ccccc3)CC[C@@H]21 | -1[16.7 µM]
COC(=O)C1=C(C)N(Cc2ccc(C(F)(F)F)cc2)C(=NCc2ccc(C(F)(F)F)cc2)NC1c1cccc(Cl)c1 (stereo not drawn) | 27
C[C@@H]1CCCCO[C@@H](CN(C)S(C)(=O)=O)[C@@H](C)CN([C@H](C)CO)C(=O)c2cc(NC(=O)CCC(F)(F)F)ccc2O1 | -8[16.7 µM]
CN1CCN(C(=O)C[C@@H]2CC[C@H](NC(=O)c3ccc4c(c3)OCO4)[C@H](CO)O2)CC1 | 8[16.7 µM]
C[C@H]1CCCCO[C@@H](CN(C)Cc2ccncc2)[C@@H](C)CN([C@@H](C)CO)C(=O)c2cc(NC(=O)Nc3ccccc3)ccc2O1 | 58*[16.7 µM]
CCCNC(=O)N1[C@@H]2Cn3c(cccc3=O)[C@H]1[C@@H](C(=O)NCC(F)(F)F)[C@@H]2CO | 12[16.7 µM]
C[C@H](CO)N1C[C@H](C)[C@@H](CN(C)C(=O)C2CCC2)Oc2ncc(Br)cc2C1=O | 0[16.7 µM]
CN(C)C(=O)[C@H]1[C@H](CO)[C@H]2Cn3c(cccc3=O)[C@H]2N1C(=O)C1CCC1 | 14[16.7 µM]
CC(=O)C1=C(C)N(Cc2ccc(Cl)cc2)C(=S)NC1c1ccc(Cl)cc1 (stereo not drawn) | 60*
CO[C@H]1CN(C)C(=O)c2ccc(NS(=O)(=O)CC(F)(F)F)cc2OC[C@@H](C)NC[C@@H]1C | -6[16.7 µM]
COc1cccc(S(=O)(=O)Nc2ccc3c(c2)[C@H]2C[C@H](CC(=O)NCc4ccccc4F)O[C@H](CO)[C@H]2O3)c1 | ?
COCC(=O)Nc1ccc2c(c1)C(=O)N(C)C[C@H](OC)[C@@H](C)CN(C(=O)c1ccccc1)[C@H](C)CO2 | -12[16.7 µM]
CN1CCN(C(=O)C[C@@H]2CC[C@H](NC(=O)c3ccc4c(c3)OCO4)[C@@H](CO)O2)CC1 | 7[16.7 µM]
C[C@@H]1CN([C@H](C)CO)C(=O)Cc2cc(NC(=O)Cc3cn(C)c4ccccc34)ccc2O[C@@H]1CN(C)Cc1ccc(-c2ccccc2)cc1 | -348[16.7 µM]
COc1ccc2nc(-c3ccc(CN4CCC5(CC4)CNc4ccccc45)cc3)c(-c3ccccc3)nc2c1 | -4
COc1ccc(C[C@H]2CCn3cc(nn3)COC[C@H](Cc3ccccc3)NC2=O)cc1 | 10[16.7 µM]
CC(=O)N1CCN(c2ccc(N3CCN(Cc4ccccc4)[C@@H](C)C3)c(C)c2)[C@@H](C)C1 | 1
COc1cccc(CN(C)C[C@H]2OCc3cnnn3CCCC(=O)N([C@H](C)CO)C[C@H]2C)c1 | 6[16.7 µM]
CO[C@@H]1CN(C)C(=O)c2cc(NS(C)(=O)=O)ccc2OC[C@H](C)N(C)C[C@H]1C | -3[16.7 µM]
CNC[C@H]1Oc2ccc(NS(=O)(=O)c3ccc(OC)cc3)cc2CC(=O)N([C@H](C)CO)C[C@@H]1C | -10[16.7 µM]
C/C=C/c1ccc([C@H]2[C@@H](CO)N(C(=O)CN(C)C)C23CN(C(=O)C2CCCC2)C3)cc1 | 1[16.7 µM]
C[C@H](O)C#Cc1cnc2c(c1)C(=O)N([C@H](C)CO)C[C@H](C)[C@H](CN(C)C(=O)Cc1ccncc1)O2 | 1[16.7 µM]
COc1cccc(S(=O)(=O)N2C[C@@H](O)COC[C@H]3O[C@@H](CC(=O)N4CCN(c5ccccc5)CC4)CC[C@@H]32)c1 | 1[16.7 µM]
CC(C)[C@H](NC(=O)CC1CCCC1)C(=O)N1CCC[C@H]1C(=O)NCc1ccccc1 | -2
C[C@H](NC(=O)C[C@H]1C[C@H]2c3cc(NC(=O)Cc4ccncc4)ccc3O[C@H]2[C@H](CO)O1)c1ccccc1 | 8[16.7 µM]
O=C(NC1CCCC1)[C@H]1[C@H](CO)[C@H]2Cn3c(ccc(-c4ccccc4F)c3=O)[C@@H]1N2C(=O)CC1CC1 | -21[16.7 µM]
O=C(C[C@@H]1CC[C@H]2[C@@H](COC[C@@H](O)CN2C(=O)Nc2ccc(Cl)cc2)O1)NCCc1ccncc1 | -17[16.7 µM]
COCC(=O)N(C)C[C@H]1Oc2cc(-c3ccccc3F)ccc2S(=O)(=O)N([C@H](C)CO)C[C@@H]1C | 17[16.7 µM]
COc1ccc(NC(=O)N(C)C[C@@H]2Oc3c(NC(=O)c4cc(C)nn4C)cccc3C(=O)N([C@H](C)CO)C[C@H]2C)cc1 | -6[16.7 µM]
C[C@@H]1CCCCO[C@H](CN(C)Cc2ccccc2)[C@@H](C)CN([C@H](C)CO)C(=O)c2cc(NC(=O)c3ccncc3)ccc2O1 | -19[16.7 µM]
C[C@H](NC(=O)C[C@H]1C[C@H]2c3cc(NC(=O)NC4CCCCC4)ccc3O[C@H]2[C@H](CO)O1)c1ccccc1 | 4[16.7 µM]
CCCCCCCCN1C(=O)[C@@H](CC(=O)NCCCN2CCCC2=O)C[C@@]2(C(=O)OC)C1=C[C@H](C(C)(C)C)O[C@@H]2C | ?
CC(C)NC(=O)Nc1ccc2c(c1)C(=O)N([C@H](C)CO)C[C@H](C)[C@@H](CN(C)C(=O)C1CCCCC1)OCCCC[C@@H](C)O2 | 1[16.7 µM]
CCCC(=O)Nc1ccc2c(c1)OC[C@H](C)N(C(=O)c1cccnc1)C[C@H](C)[C@@H](OC)CN(C)C2=O | 2[16.7 µM]
CCCN1C[C@@H](C)[C@@H](OC)CN(C)C(=O)c2cc(NC(=O)COC)ccc2OC[C@H]1C | -2[16.7 µM]
C=CCN1C(C(=O)OCC)CSCCS1(=O)=O (stereo not drawn) | -5
O=Cc1ccc(/C=C2\c3ccccc3C(=O)N2c2ccccc2)o1 | -242
CO[C@H]1CC[C@@H]2CCN(C)C(=O)[C@H](C)N(C)C(=O)c3cc(C#N)ccc3OC[C@H]1O2 | 25[16.7 µM]
CO[C@@H]1CN(C)C(=O)c2ccc(NC(=O)c3cnccn3)cc2OC[C@H](C)N(C)C[C@H]1C | 3[16.7 µM]
CO[C@H]1CC[C@H]2CCOc3c(C#N)cccc3C(=O)N(C)C[C@H](OC)[C@H](C)C(=O)N(C)C[C@@H]1O2 | 8[16.7 µM]
Cc1cccc(NC(=O)CNC(=O)[C@H](CCc2ccccc2)NC(=O)[C@H]2O[C@@H](n3cnc4c(N)ncnc43)[C@H](O)[C@@H]2O)c1C | 18
COc1cccc(S(=O)(=O)N2CCC3(CC2)CN(C(=O)Nc2ccc(F)cc2)[C@H](CO)c2[nH]c4cc(OC)ccc4c23)c1 | 51[16.7 µM]
CCC(=O)N1C[C@@H](O)COC[C@H]2O[C@@H](CC(=O)NC)CC[C@@H]21 | -14[16.7 µM]
O=C(NCCN1CCCCC1)[C@@H]1N[C@@H]2c3ccc(-c4cccnc4)c(=O)n3C[C@@H]2[C@H]1CO | 3[16.7 µM]
C[C@H]1CN([C@@H](C)CO)C(=O)CCCn2cc(nn2)CO[C@H]1CN(C)S(C)(=O)=O | 11[16.7 µM]
COc1ccc(-c2ccc3c(n2)CCCN3S(=O)(=O)c2ccccc2)cc1 | -5
Cc1noc(C)c1S(=O)(=O)N(C)C[C@H]1Oc2ccc(NS(=O)(=O)c3ccc(F)cc3)cc2CC(=O)N([C@@H](C)CO)C[C@H]1C | 14[16.7 µM]
C[C@H](CO)N1C[C@H](C)[C@H](CN(C)Cc2cccc(C(F)(F)F)c2)Oc2ncc(-c3cccc(F)c3)cc2C1=O | 18[16.7 µM]
CC(C)(C)C(=O)c1c(N)[nH]c(C(=O)c2ccccc2)c1-c1ccccc1 | 10
CCCN(C)C[C@@H]1Oc2cc(C#Cc3cccc(OC)c3)ccc2S(=O)(=O)N([C@H](C)CO)C[C@@H]1C | 3[16.7 µM]
COc1ccc(NC(=O)Nc2ccc3c(c2)[C@H]2C[C@H](CC(=O)N4CCN(C)CC4)O[C@H](CO)[C@H]2O3)cc1 | -2[16.7 µM]
C[C@@H](NC(=O)C[C@@H]1C[C@@H]2c3cc(NC(=O)C4CCOCC4)ccc3O[C@@H]2[C@H](CO)O1)c1ccccc1 | -13[16.7 µM]
COCc1cc(N2CCN(C(=O)OC(C)(C)C)C[C@H]2C)ccc1N1CCN(Cc2ccccc2)[C@@H](C)C1 | 20
COc1ccc(S(=O)(=O)N(C)C[C@@H]2Oc3ccc(NC(=O)Nc4cccc5ccccc45)cc3C(=O)N([C@@H](C)CO)C[C@@H]2C)cc1 | 20[16.7 µM]
COC(=O)[C@]12C[C@H](CC(=O)N3CCSCC3)C(=O)N(Cc3ccc4c(c3)OCO4)C1=C[C@H](COCc1ccccc1)O[C@@H]2C | -21
COC(=O)C1=C(C)N(Cc2ccccc2C(F)(F)F)C(=NCc2ccc(C(F)(F)F)cc2)NC1c1ccc(F)cc1 (stereo not drawn) | 6
CC(C)C[C@@H]1COCc2cn(nn2)CC[C@H](C)C(=O)N1 | -8[16.7 µM]

Exported with tabs: entries from further up
molecule	Env fusion inh
C[C@H](O)C#Cc1cnc2c(c1)C(=O)N([C@H](C)CO)C[C@H](C)[C@H](CN(C)C(=O)Cc1ccncc1)O2	1[16.7 µM]
C[C@@H]1CCCCO[C@H](CN(C)Cc2ccccc2)[C@@H](C)CN([C@H](C)CO)C(=O)c2cc(NC(=O)c3ccncc3)ccc2O1	-19[16.7 µM]

(next part)
SMILES | Env fusion inh
Cc1noc(C)c1NC(=O)Nc1ccc2c(c1)C(=O)N([C@@H](C)CO)C[C@@H](C)[C@@H](CN(C)CC1CC1)OCCCC[C@@H](C)O2 | 10[16.7 µM]
CN1C(=O)c2cc(NC(=O)c3cccc(C(F)(F)F)c3)ccc2OC[C@@H]2O[C@H](CC(=O)O)CC[C@H]21 | -2[16.7 µM]
CC(C)NC(=O)Nc1ccc2c(c1)C(=O)N([C@H](C)CO)C[C@H](C)[C@@H](CN(C)C(=O)CCCN(C)C)OCCCC[C@H](C)O2 | 8[16.7 µM]
C[C@H](CO)N1C[C@H](C)[C@@H](CN(C)Cc2ccc(C(=O)O)cc2)Oc2c(NC(=O)NC3CCCCC3)cccc2C1=O | -1[16.7 µM]
O=C(C[C@@H]1C[C@H]2c3cc(NC(=O)c4cccnc4)ccc3O[C@H]2[C@@H](CO)O1)NCCN1CCCCC1 | 5[16.7 µM]
CC(C)COC(=O)N(C)C[C@H]1OCc2ccccc2-c2c(n(C)c3ccccc23)C(=O)N([C@H](C)CO)C[C@@H]1C | 62*[16.7 µM]
Cc1cc(N2CCNC[C@H]2C)ccc1N1CCN(Cc2ccccc2)[C@H](C)C1 | 8
C[C@H](CO)N1C[C@H](C)[C@H](CN(C)Cc2ccc(Cl)c(Cl)c2)Oc2ccc(NC(=O)CCC(F)(F)F)cc2C1=O | 5[16.7 µM]
CC1(C)CC(=O)C=C(C2CC2)C1=O | 14
COCC(=O)N[C@@H]1C=C[C@H](CC(=O)N2CCCCC2)O[C@H]1CO | -8[16.7 µM]
C[C@H](CO)N1C[C@H](C)[C@H](CN(C)C)Oc2ccc(NC(=O)C3CC3)cc2CC1=O | 5[16.7 µM]
COC(=O)[C@]12C[C@H](CC(=O)NCc3ccc(C)o3)C(=O)N(Cc3ccccc3)C1=C[C@H](C1CCCC1)O[C@@H]2C | -1

Some of the entries so far, with tabs.
compound	Env fusion inh
Cc1cc(N2CCNC[C@H]2C)ccc1N1CCN(Cc2ccccc2)[C@H](C)C1	8
C[C@H](CO)N1C[C@H](C)[C@H](CN(C)Cc2ccc(Cl)c(Cl)c2)Oc2ccc(NC(=O)CCC(F)(F)F)cc2C1=O	5[16.7 µM]
CC1(C)CC(=O)C=C(C2CC2)C1=O	14

More results
SMILES | Env fusion inh
C[C@@H]1CN([C@@H](C)CO)S(=O)(=O)c2ccc(C3=CCCC3)cc2O[C@@H]1CN(C)C(=O)c1cnccn1 | 15[16.7 µM]
O=C(C[C@@H]1C=C[C@@H](NS(=O)(=O)c2ccc(F)cc2)[C@H](CO)O1)NC1CCCCC1 | 28[16.7 µM]
CCCC(=O)Nc1ccc2c(c1)C(=O)N(C)C[C@@H](OC)[C@H](C)CN(C(=O)CC1CC1)[C@@H](C)CO2 | 7[16.7 µM]
CCCNC(=O)C[C@H]1CC[C@@H]2[C@H](COC[C@H](O)CN2C(=O)c2cccnc2)O1 | 24[16.7 µM]
CCCCS(=O)(=O)N1CCCc2nc(-c3ccc(OC)cc3)ccc21 | -21
C[C@@H]1CN([C@H](C)CO)C(=O)c2cc(N(C)C)ccc2O[C@@H](C)CCCCO[C@H]1CN(C)C(=O)c1ccncc1 | -5[16.7 µM]
CO[C@H]1CN(C)C(=O)c2ccc(NC(=O)NC(C)C)cc2OC[C@H](C)N(Cc2ccccn2)C[C@H]1C | -13[16.7 µM]

Look-ups from the entries so far:
Value for O=C(NCCN1CCCCC1)[C@@H]1N[C@@H]2c3ccc(-c4cccnc4)c(=O)n3C[C@@H]2[C@H]1CO in Env fusion inh: 3[16.7 µM]
Value for C[C@@H]1CCCCO[C@@H](CN(C)S(C)(=O)=O)[C@@H](C)CN([C@H](C)CO)C(=O)c2cc(NC(=O)CCC(F)(F)F)ccc2O1 in Env fusion inh: -8[16.7 µM]
Value for O=C(NC1CCCC1)[C@H]1[C@H](CO)[C@H]2Cn3c(ccc(-c4ccccc4F)c3=O)[C@@H]1N2C(=O)CC1CC1 in Env fusion inh: -21[16.7 µM]
Value for O=Cc1ccc(/C=C2\c3ccccc3C(=O)N2c2ccccc2)o1 in Env fusion inh: -242
